# High-throughput results from PubChem BioAssay.
# Calb FLC: C. albicans growth modulation with fluconazole | C. albicans CaCi-2 (fluconazole-resistant clinical isolate) + fluconazole, Alamar Blue growth, 48 h | growth inhibition, % (concentration not given with the values) | hit rate 0.57% among 300,000 | AID 1979;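 active = most replicates above 75%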;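 note: all wells also contain fluconazole at 8 µg/ml as a sub-toxic cotreatment; 0% = median of DMSO wells and 100% = median of geldanamycin control wells; wells of about 8 µL received 7.5 nL stock; the first replicate is given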
# T cruzi inh: blocks replication of Trypanosoma cruzi. T. cruzi beta-gal in NIH3T3, luminescence, 90 h. inhibition, % (no concentration beside the values). hit rate 1.4% among 300,000;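 active = mean inhibition across valid replicates above about 55%, limit read from the data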;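 note: signal also drops with host cell toxicity which is not excluded here; 0% = plate median of DMSO wells and 100% = zero luminescence signal; higher percent means less beta-gal luminescence so fewer parasites; stock transfer was 50 nL into about 50 µL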
# A1 inh: inhibitors of the anti-apoptotic protein A1, read as caspase activation | AID 2462 | hit rate 0.066% among 330,000 | MEF A1-2A-BIM cells, Caspase-Glo 3/7 luminescence, 3 h; percent of clofoctol response, vehicle zero | caspase activation, % (no concentration beside the values);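 active = over half of replicate activation scores above 10%, or exactly half above 10 with the replicate mean above 10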;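 note: wells of about 30 µL received 50 nL stock; many hits fall short of the cut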
# Beta cell apopt: blocks beta cell apoptosis; protection from apoptosis, % (concentration not given with the values); INS-1E cytokine-induced death, ATP luminescence, 48 h; percent of positive-control rescue, neutral wells zero; AID 435005; hit rate 0.8% among 300,000;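 active = all replicates at 75% or more, or half of them and the mean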;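 note: 0% = cytokine-treated negative control wells and 100% = positive control rescue; higher means more ATP so stronger rescue from cytokine killing; wells of about 40 µL received 100 nL stock; the first replicate is given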
# rRNA inh HTS: inhibitors of bacterial rRNA selective over humanized ribosomes; E. coli WT GFP vs humanized-ribosome RFP mutants, fluorescence, 24 h; active compounds read low; DMSO median 0, no signal -100; GFP signal change (wild-type ribosome), % (test concentration not listed); hit rate 1.6% among 350,000; AID 720706;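 active = significant combined selectivity score with lowered wild-type GFP, culture density cut under 30%, mutant RFP and density less affected; inactive = any of these conditions unmet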; note: one replicate is shown; some compounds called inactive have numbers as strong as hits
# B2AR ag: activates human beta-2 adrenergic receptor causing internalization. P07550. Am2.2-beta2AR cells, FAP receptor internalization, flow cytometry; reference of the scale not given here. response, % (test concentration not listed). hit rate 0.43% among 340,000;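 active = response above a set limit, near 3 SD of response in nonfluorescent compounds, cut at about 42% in these data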;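 note: stock transfer was 100 nL into about 11 µL; a reference agonist was the positive control; negative values mostly stem from fluorescent compounds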
# Target sequence (P07550 whole entry, looked up): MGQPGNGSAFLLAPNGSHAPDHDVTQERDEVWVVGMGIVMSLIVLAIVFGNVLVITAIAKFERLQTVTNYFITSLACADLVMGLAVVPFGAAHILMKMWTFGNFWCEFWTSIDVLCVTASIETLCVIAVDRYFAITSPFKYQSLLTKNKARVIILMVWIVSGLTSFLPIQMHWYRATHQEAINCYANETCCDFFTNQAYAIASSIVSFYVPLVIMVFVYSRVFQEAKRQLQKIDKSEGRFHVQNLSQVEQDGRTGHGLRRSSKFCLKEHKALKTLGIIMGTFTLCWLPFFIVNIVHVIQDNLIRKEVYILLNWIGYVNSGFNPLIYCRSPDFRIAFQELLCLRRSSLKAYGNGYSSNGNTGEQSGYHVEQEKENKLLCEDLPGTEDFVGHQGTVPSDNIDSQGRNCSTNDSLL
# ALR H2O2 inh: blocks human ALR sulfhydryl oxidase activity; inhibition, % (no concentration beside the values); P55789; hit rate 3.8% among 290,000; purified ALR, DTT oxidation, H2O2 HRP-luminol luminescence;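 active = mean and each replicate at 75% or more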;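 note: stock transfer was 7.5 nL into about 7.5 µL; 0% = neutral wells and 100% = wells with inactivated enzyme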
# Target sequence (P55789 whole entry, looked up): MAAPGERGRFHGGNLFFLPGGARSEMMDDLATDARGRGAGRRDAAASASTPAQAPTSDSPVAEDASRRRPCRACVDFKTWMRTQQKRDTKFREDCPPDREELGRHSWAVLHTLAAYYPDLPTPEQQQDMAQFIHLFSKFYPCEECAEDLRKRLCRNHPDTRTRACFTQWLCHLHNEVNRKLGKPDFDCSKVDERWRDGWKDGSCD
# LANA-H2A inh: blocks KSHV LANA binding to histone H2A/H2B | cell-free LANA-H2A/H2B peptide, fluorescence polarization | inhibition, % (test concentration not listed) | hit rate 0.6% among 320,000 | AID 2629 | Q9QR71; in the data active = inhibition mostly above about 10%, no sharp cut-off; inactive = mostly below about 6.7%;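 note: stock transfer was 7.5 nL into about 10 µL; 0% = median of vehicle wells and 100% = median of positive control wells; one replicate is shown; the record names a cut of 25% in any replicate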
# rRNA inh HTS OD600: second read-out of rRNA inh HTS, no call of its own (marks repeat the call); OD600 change, %; measured here: OD600 growth;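 optical density of the mix in the first replicate; 0 = DMSO median and -100 = no signal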
# rRNA inh HTS RFP: recorded beside rRNA inh HTS, whose call it bears; RFP signal change, %; measured here: RFP humanized mutant strains;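 first replicate; 0 = DMSO median and -100 = no signal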
# * = called active by the depositor; i = inactive; x = not tested or not shown. The list is partial; count on the stated rates, not on these rows.
SMILES,Calb FLC,T cruzi inh,A1 inh,Beta cell apopt,rRNA inh HTS,rRNA inh HTS OD600,rRNA inh HTS RFP,B2AR ag,ALR H2O2 inh,LANA-H2A inh
O=C(/C=C/c1ccccc1Cl)NNC(=O)c1cccs1,-3,-17,0.0,2,-11,-10,0.4,1,-2,2.6
CCc1ccccc1S(=O)(=O)Cc1ccc(C(=O)N2CCN(c3ccccn3)CC2)o1,3,-10,-0.1,2,-7,-2,0.3,-15,-87,-3.4
O=C(CN1C(=O)c2ccccc2S1(=O)=O)NCCC1=CCCCC1,23,-10,0.4,-4,x,x,x,0,-3,-5.0
Cc1ccc(CS(=O)(=O)Cc2ccc(C(=O)NCc3cccnc3)o2)cc1,-1,3,0.3,1,x,x,x,5,6,0.4
O=C(N/N=C\c1ccc([N+](=O)[O-])o1)C1COc2ccccc2O1 (stereo unspecified),66,61*,-0.7,x,13,2,0.0,5,-23,-1.9
COc1ccc(-c2cc(C(=O)Nc3ccc(F)cc3F)no2)cc1,-5,-8,0.5,-3,15,6,0.8,-3,4,-6.5
COc1ccc(CCNc2nnc(Sc3nnnn3-c3ccccc3)s2)cc1OC,40,8,-0.4,15,x,x,x,-6,x,2.3
COc1cccc(NC(=O)COc2cccc3c2CCNC3=O)c1,-2,-8,-0.3,0,10,14,-0.2,1,-2,-4.0
CC(=O)c1ccc(N2CCN(C(=S)NCCCN(C)C)CC2)cc1,-1,3,-0.2,0,10,6,5.2,-2,0,0.8
CSc1ncc(Cl)c(C(=O)Nc2nnc(SC/C=C/c3ccccc3)s2)n1,59,-15,0.0,5,-15,-30,-0.6,0,11,2.9
CC(=O)N/N=C/c1cc2c(cc1[N+](=O)[O-])OCO2,-5,-16,0.4,4,22,14,3.0,-12,-23,-2.8
Cc1cc(O)ccc1-c1cnc2ccccc2n1,-16,5,0.0,-2,x,x,x,-30,58,-0.7

# Rewritten bar-delimited: entries from further up
SMILES | Calb FLC | T cruzi inh | A1 inh | Beta cell apopt | rRNA inh HTS | rRNA inh HTS OD600 | rRNA inh HTS RFP | B2AR ag | ALR H2O2 inh | LANA-H2A inh
Cc1ccc(CS(=O)(=O)Cc2ccc(C(=O)NCc3cccnc3)o2)cc1 | -1 | 3 | 0.3 | 1 | x | x | x | 5 | 6 | 0.4
O=C(N/N=C\c1ccc([N+](=O)[O-])o1)C1COc2ccccc2O1 (stereo unspecified) | 66 | 61* | -0.7 | x | 13 | 2 | 0.0 | 5 | -23 | -1.9
COc1ccc(-c2cc(C(=O)Nc3ccc(F)cc3F)no2)cc1 | -5 | -8 | 0.5 | -3 | 15 | 6 | 0.8 | -3 | 4 | -6.5

# More structures
SMILES,Calb FLC,T cruzi inh,A1 inh,Beta cell apopt,rRNA inh HTS,rRNA inh HTS OD600,rRNA inh HTS RFP,B2AR ag,ALR H2O2 inh,LANA-H2A inh
CC[N+]1=C(C)C(C)(C)c2cc(C)ccc21,-2,57*,-1.0,101*,-39,-66,25,-31,x,-2.1
O=C(Nc1ccccc1)N1CCOCC1,9,-11,0.5,2,x,x,x,1,-8,0.6
Cc1ccc(N2CCN(C(=O)c3cccc([N+](=O)[O-])c3)CC2)cc1Cl,20,22,0.0,-1,-5,-22,-1.3,7,9,-0.6
O=c1cnc2cc([N+](=O)[O-])ccc2[nH]1,19,-1,0.5,4,6,2,-3.2,9,-20,-7.5
CCc1ccc2c(CN3CCN(S(=O)(=O)c4ccc5c(c4)OCCO5)CC3)cc(=O)oc2c1,-4,49,0.0,0,x,x,x,0,-7,4.1
CCOc1ccc(C2C(C#N)=C(N)N(N(C)C)C3=C2C(=O)CCC3)cc1 (stereo unspecified),1,-3,0.0,-6,6,7,-0.5,-10,-97,-2.9
CCOC(=O)CN(C)S(=O)(=O)c1ccc(-c2cc(C(=O)OC)sc2C(F)(F)F)cc1,-1,-17,0.9,-3,-19,-14,1.4,7,-3,-3.8
COC(=O)NNC(=O)COc1ccc(Cl)cc1,0,-7,1.0,3,17,21,-9.6,1,0,17
Cc1ccc(NC2CC(=O)N(c3ccc(N4CCCCC4)cc3)C2=O)cc1 (stereo unspecified),-1,-3,1.0,1,x,x,x,1,-4,1.0
CC1=NNC(=O)C1Cc1ccc(F)cc1 (stereo unspecified),-11,-1,0.1,1,x,x,x,-8,-3,0.7
C#CCOCCOCCOCCNc1nc(N2CCN(C(=O)[C@H](CCCCN)n3cc(CC(C)O)nn3)CC2)nc(N2CCN(C(=O)[C@H](CCCCN)n3cc(CC(C)O)nn3)CC2)n1 (stereo partly specified),x,x,0.4,-3,1,6,-1.2,6,x,6.1
O=C1CC(c2ccccc2)CC(=O)C1CS(=O)(=O)c1ccccc1 (stereo unspecified),-31,3,-0.2,-8,0,2,-6.4,-6,19,-4.3
COc1ccc(Nc2ncnc3nc[nH]c23)cc1OC,-7,5,-0.9,-9,x,x,x,12,-4,0.6
COc1cc(OC)nc(Oc2cc(/C=N/O)ccc2OC)n1,-10,-13,-0.6,-10,0,2,2.2,-1,-9,2.5
O=C(NCCc1ccccc1)c1nccc2ccccc12,-11,-3,0.1,1,5,0,0.9,-1,13,-1.4
COC(=O)c1[nH]c2cccc(OC)c2c1NC(=O)CCN1CCSCC1,44,-2,1.9,2,7,-10,-3.2,2,0,-0.2
O=C(C/C=N\OCc1ccc([N+](=O)[O-])cc1)Nc1ccc(F)cc1F,-4,-9,-0.5,-5,-2,10,4.8,-2,-3,3.3
COc1cc(CC(=O)N2CCC(n3nccc3NC(=O)C3CC3)CC2)cc(OC)c1OC,-5,-1,0.8,1,11,12,-1.4,6,-3,-4.6
O=S(=O)(c1ccc2oc3ccccc3c2c1)N1CCOCC1,6,1,-0.9,-4,x,x,x,-9,-4,0.6
COCCNC(=O)c1cc2cc(Br)cc(Br)c2oc1=O,-1,-11,-0.6,-7,18,19,1.9,-3,-3,3.9
O=C(CCc1ccccc1)Nc1nn[nH]n1,-10,-18,0.2,-10,x,x,x,35,x,2.4
Cc1[nH]c2ccccc2c1C(=O)C(=O)NCCc1c[nH]c2ccccc12,3,2,0.9,x,-17,-14,-1.8,5,4,1.9
O=S(=O)(c1ccc(-c2ccccn2)s1)N1CCC2(CC1)OCCO2,-14,-7,-0.1,-5,10,8,0.7,-5,-4,2.0
Cc1ccc(/C=N/NC(=O)COc2ccccc2-c2ccccc2)cc1,9,-20,0.8,61,x,x,x,29,x,-2.1
CCNc1nc(SC(C)C(=O)Nc2ccccc2)nc(N2CCOCC2)n1 (stereo unspecified),-3,2,-0.3,-4,x,x,x,-10,15,0.3
O=C(NCc1ccccc1)c1ccc(CNc2c(N3CCCC3)c(=O)c2=O)cc1,-11,-3,0.1,0,9,1,-5.8,-8,-2,0.6
O=C(c1ccccc1)c1ccc(N2CCOCC2)c(NC(=O)c2ccco2)c1,-6,22,-1.0,4,x,x,x,5,x,-0.5
CC1CCN(c2ccc(C=O)o2)CC1,18,0,0.1,3,12,11,1.3,-5,0,5.0
COc1cccc(CNc2ccc(S(N)(=O)=O)cc2)c1OC,11,-9,0.0,-1,x,x,x,-8,0,-5.5
Nc1ccc2c(C(F)(F)F)cc(C(F)(F)F)nc2n1,9,-1,0.0,-5,4,12,-1.1,2,-18,0.4
COc1ccccc1Nc1nc(NCCCN(C)C)nc(N)c1[N+](=O)[O-],-22,29,0.1,14,-6,-5,-3.6,33,-20,2.7
CCOC(=O)Cc1csc(SCC(=O)Nc2oc(C)c3c(C)n[nH]c(=O)c23)n1,x,x,0.2,-2,4,6,-3.1,-4,17,1.2
CS(=O)(=O)N(CC(=O)Nc1ccc(S(=O)(=O)N2CCCC2)cc1)c1ccccc1,-13,0,0.5,5,-3,-3,-4.7,1,-10,5.5
CCOC(=O)COc1ccc(C(=O)Nc2cccc(Cl)c2C)cc1,3,-2,-0.3,-6,20,0,-1.4,7,25,1.1
CN1OC(COC(=O)c2ccc(Cl)cc2)CC1c1ccccc1 (stereo unspecified),11,-8,1.1,-3,x,x,x,0,3,2.7
NC(=O)c1ccccc1NC(=O)c1ccccc1Cl,-8,-5,0.0,-2,-1,7,-0.8,8,-2,1.7
CCCCc1ccc(S(N)(=O)=O)cc1,10,-15,-0.1,-1,3,10,4.2,-6,-28,-12
CC(C)(C)c1nc(SCC(=O)Nc2ccc3c(c2)OCCO3)c2ccccc2n1,-4,25,-0.5,-11,1,3,-2.5,1,-62,3.6
Cc1ccc2oc(=O)c3cc(C(=O)NCCCN4CCN(C)CC4)sc3c2c1,1,27,0.2,6,5,2,1.0,-3,66,5.7
N#Cc1c(NC(=O)c2ccc(-c3ccccc3[N+](=O)[O-])o2)sc2c1CCCC2,-7,8,0.5,1,x,x,x,-3,-5,2.1
C/C(=N\NC(=O)c1ccc(Cl)c(Cl)c1)c1ccccn1,-13,60*,-1.9,93*,5,3,4.3,0,-7,4.9
CCc1ccc(OCC(=O)NNC(=O)CSc2nnc(-c3ccc(C)cc3)n2C)cc1,4,-7,0.7,-11,x,x,x,-3,-7,0.8
O=C(Cn1cnc([N+](=O)[O-])n1)c1ccc(O)c(O)c1,-13,32,-0.1,0,4,10,-0.7,-2,94*,-2.4
O=C(Nc1ccc(S(=O)(=O)N2CCOCC2)cc1)C1COc2ccccc2O1 (stereo unspecified),-2,-9,0.1,-7,x,x,x,-2,-7,-1.3
CCCN(C(=O)c1cc(CC)c(C)s1)c1c(N)n(Cc2ccccc2)c(=O)[nH]c1=O,0,-2,0.1,3,5,7,-0.6,-4,-3,-0.4
Cc1ccc(OCCCCN2CCCCC2)c(C)c1,-3,29,-1.3,-4,11,12,0.5,11,1,-7.8
CCc1ccccc1NC(=S)N1CCNC(=O)C1CC(=O)OC (stereo unspecified),31,2,0.1,-5,6,6,2.2,-8,-3,-3.8
COc1ccc2[nH]c(C(=O)O)c(NS(=O)(=O)c3ccc(F)cc3)c2c1,x,0,-0.6,-5,6,5,0.6,2,90*,1.1
Cc1cc(C(=O)COC(=O)c2n[nH]c(=O)c3ccccc23)c(C)n1C,x,x,0.9,2,-2,0,1.1,6,-5,5.0
CCOc1ccc(CN(C)C(C)C(=O)NCc2ccccc2)cc1 (stereo unspecified),2,15,0.7,6,9,8,0.5,-7,3,-5.9
O=C(C(=O)N1CCCC1)c1c[nH]c2ccccc12,-7,-15,1.2,-1,3,12,-1.0,9,-1,-1.5
COc1cccc(NCc2cc(=O)oc3cc(-c4ccccc4)c(O)cc23)c1,-12,-10,0.5,3,x,x,x,-1,x,4.0
O=C(NCCSc1ccccc1)c1ccc(Br)cc1,-4,1,-1.7,-1,-13,4,0.6,-6,-4,1.2
O=C(NCc1ccccn1)C(=O)N/N=C/c1ccc2c(c1)OCO2,14,-5,-0.5,2,17,20,-4.6,7,1,-0.6
COc1ccc(NC(=O)c2cc(-c3ccc(C)o3)nc3ccccc23)cc1OC,x,x,-0.6,7,x,x,x,9,-9,-4.1
Cc1cc(NC(=O)CSc2nnc(-c3ccncc3)n2C)n(-c2ccccc2)n1,-2,-10,-0.9,0,21,7,2.0,x,-23,0.4
Cc1cc2[nH]ncc2cc1NC(N)=S,28,-2,0.2,-8,5,0,-1.5,12,-2,i
CN(C)S(=O)(=O)c1cccc(C(=O)NCC(=O)NC2CCN(Cc3ccccc3)CC2)c1,0,1,2.7,2,3,0,0.0,-3,5,1.2
